High-throughput results: PubChem, several laboratories
Vif A3G = HIV-1 Vif–A3G interaction blockers – biochemical, TR-FRET, GST-Vif 1-94, biotin-A3G peptide, dose response retest, primary screen (AID 1117319); one-dose inhibition, %; IC50 in µM for titrated hits; 260,000 compounds, 0.57% hits; TR-FRET GST-Vif / biotin-A3G peptide binding; higher % means a stronger effect; test concentration not given here; strong numbers were not always called active;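 active = above the screen mean plus three standard deviations and confirmed in dose response; inconclusive = results disagree or hit not tested in dose response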;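 also: Vif residues 1-94 fused to GST binding biotinylated APOBEC3G peptide 110-148; 0% = full assay without inhibitor and 100% = GST in place of GST-Vif; retest series ran down from 100 µM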
A1 inh = inhibitors of the anti-apoptotic protein A1, read as caspase activation. MEF A1-2A-BIM cells, Caspase-Glo 3/7 luminescence, 3 h; percent of clofoctol response, vehicle zero. caspase activation, % (no concentration beside the values). 330,000 compounds, 0.066% hits. AID 2462;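 active = over half of replicate activation scores above 10%, or exactly half above 10 with the replicate mean above 10; inconclusive = replicate mean below 10 yet half the replicates above 10; inactive = over half of replicates below 10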;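 also: wells of about 30 µL received 50 nL stock; many hits fall short of the cut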
HNF4A DNA FP = change in binding of human HNF4 alpha to DNA | P41235 | HNF4a-FITC DNA binding, fluorescence polarization, 1 h | activity change, % at 10 µM | 360,000 compounds, 0.3% hits | AID 1224865; in the data active = activity change above about 30%, passing the limit was not always enough;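 also: controls were the assay level and a saturating level of protein; the project sought stronger binding though the title names inhibitors; some compounds called inactive have numbers as strong as hits; positive values seem to mean higher polarization but the record does not say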
Target sequence (P41235 whole entry, looked up): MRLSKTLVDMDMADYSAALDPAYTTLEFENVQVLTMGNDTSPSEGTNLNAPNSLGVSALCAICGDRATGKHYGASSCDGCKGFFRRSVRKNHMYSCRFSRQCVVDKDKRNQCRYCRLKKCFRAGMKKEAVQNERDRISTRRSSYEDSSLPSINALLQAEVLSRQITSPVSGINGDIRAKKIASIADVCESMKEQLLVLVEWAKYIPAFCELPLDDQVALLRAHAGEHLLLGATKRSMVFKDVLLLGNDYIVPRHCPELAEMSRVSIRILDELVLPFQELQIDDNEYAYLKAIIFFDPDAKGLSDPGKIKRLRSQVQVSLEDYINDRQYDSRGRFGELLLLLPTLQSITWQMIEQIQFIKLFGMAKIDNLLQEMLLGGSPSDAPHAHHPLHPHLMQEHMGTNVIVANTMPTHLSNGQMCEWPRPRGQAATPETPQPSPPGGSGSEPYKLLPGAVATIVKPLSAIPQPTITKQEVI
LANA-H2B inh = blocks KSHV LANA binding to histone H2A/H2B; Q9QR71; cell-free LANA-H2A/H2B peptide, fluorescence polarization; inhibition, % (test concentration not listed); 320,000 compounds, 0.6% hits; in the data active = inhibition mostly above about 10%, no sharp cut-off; inactive = mostly below about 6.7%;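 also: stock transfer was 7.5 nL into about 10 µL; 0% = median of vehicle wells and 100% = median of positive control wells; one replicate is shown; the record names a cut of 25% in any replicate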
UCH37 inh = human UCH37 deubiquitinating enzyme inhibition | Q9Y5K5 | purified proteasome/UCH37, Ub-AMC cleavage fluorescence | inhibition, % (concentration not given with the values) | 330,000 compounds, 0.33% hits;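 active = mean of two replicates above 20%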;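 also: 0% = compound-free wells with enzyme and 100% = wells lacking proteasome; stock transfer was 100 nL into about 20 µL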
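Assay system: Proteasome-bound UCH37. Buffer or medium: pH 7.4 Tris-HCl (50 mM) with ovalbumin, ATP-MgCl2, DTT. Incubation: 30 min preincubation with enzyme, 25 min cleavage at room temperature. Measured by: fluorescence, ex 355 nm, em 460 nm. Read-out basis: percent inhibition. Control set: wells without proteasome as full block, compound-free enzyme plus substrate as uninhibited.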
Ecoli growth = inhibitors of Escherichia coli growth | 330,000 compounds, 0.21% hits | OD600, 23 h; active compounds read low | OD600 absorbance (test concentration not listed);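 active = OD600 absorbance below the run mean of sample wells minus 3.6 SD, in any replicate, cut at about 0.56 in these data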;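 also: stock transfer was 300 nL into about 60 µL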
Beta2AR agonist = agonists of human beta-2 adrenergic receptor inducing internalization. AID 504454. P07550. response, % (concentration not given with the values). 340,000 compounds, 0.43% hits. Am2.2-beta2AR cells, FAP receptor internalization, flow cytometry; reference of the scale not given here;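 active = response above a set limit, near 3 SD of response in nonfluorescent compounds, cut at about 42% in these data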;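 also: stock transfer was 100 nL into about 11 µL; a reference agonist was the positive control; negative values mostly stem from fluorescent compounds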
Target sequence (P07550 whole entry, looked up): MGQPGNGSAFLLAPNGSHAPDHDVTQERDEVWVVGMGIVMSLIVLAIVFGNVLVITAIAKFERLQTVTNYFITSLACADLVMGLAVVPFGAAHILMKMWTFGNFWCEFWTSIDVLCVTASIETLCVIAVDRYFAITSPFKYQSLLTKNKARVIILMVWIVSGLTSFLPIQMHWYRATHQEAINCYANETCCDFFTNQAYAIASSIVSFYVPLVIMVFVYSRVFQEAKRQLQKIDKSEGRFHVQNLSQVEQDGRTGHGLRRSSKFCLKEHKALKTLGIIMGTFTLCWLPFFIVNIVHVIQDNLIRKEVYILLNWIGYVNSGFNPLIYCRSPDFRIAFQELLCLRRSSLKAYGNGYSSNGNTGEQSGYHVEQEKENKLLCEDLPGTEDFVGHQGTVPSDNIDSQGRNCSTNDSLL
* marks the source's active call; other numbers are inactive results; ? = inconclusive; · = no result given. An unsorted share of the library. About 2.1% of those tested had a hit in this group.

SMILES	Vif A3G	A1 inh	HNF4A DNA FP	LANA-H2B inh	UCH37 inh	Ecoli growth	Beta2AR agonist
O=C(COc1cccnc1[N+](=O)[O-])Nc1cc(S(=O)(=O)N2CCCCC2)ccc1Cl	3%	0.1	2.1	3.5	4.5	0.72	-14
Cn1c(N)c(C(=O)CSc2nnc(-c3ccccc3F)n2C2CC2)c(=O)n(C)c1=O	-4%	1.2	-0.3	4.7	1.5	0.69	-7
Cc1cccc(NC(=O)CCS(=O)(=O)c2cc3c(cc2Cl)NC(=O)CO3)c1	4%	-0.6	-2.8	0.4	6.1	0.7	3
C=CCNC(=O)c1onc(CSc2ccc(C(C)C)cc2)c1C(=O)O	6%	-1.3	2.5	-4.7	0.1	0.67	5
COc1ccc(C2N(c3ccccc3)CCN2c2ccccc2)cc1O	·	0.9	0.0	-4.4	0.4	0.62	5
COC(=O)c1cc(=O)n(Cc2ccc3c(c2)OCO3)c(=Nc2ccc(F)cc2)s1	4%	0.2	-3.9	0.9	2.1	0.75	6
CCN(CC)S(=O)(=O)c1ccc(N2CCCC2)c(NS(=O)(=O)c2ccc([N+](=O)[O-])cc2)c1	-1%	-0.3	5.1	-0.2	0.5	0.7	-8
CC1(C)SC2c3ccccc3C(=O)N2[C@@H]1C(=O)NCCCN1CCOCC1 (stereo not given in full)	-1%	0.5	4.2	1.0	0.8	0.7	-1
CC(C)(O[C@@H]1O[C@H](CO)[C@@H](O)[C@H](O)[C@H]1O)[C@@H]1CC=C(C(=O)O)CC1	·	-0.8	-9.7	1.8	1.0	0.81	-7
Nn1c(COc2ccccc2)nc2ccccc2c1=O	3%	-3.0	-1.8	-0.3	5.7	0.69	-2

Compounds shown so far that contain fluorine, in the order listed:
SMILES	Vif A3G	A1 inh	HNF4A DNA FP	LANA-H2B inh	UCH37 inh	Ecoli growth	Beta2AR agonist
Cn1c(N)c(C(=O)CSc2nnc(-c3ccccc3F)n2C2CC2)c(=O)n(C)c1=O	-4%	1.2	-0.3	4.7	1.5	0.69	-7
COC(=O)c1cc(=O)n(Cc2ccc3c(c2)OCO3)c(=Nc2ccc(F)cc2)s1	4%	0.2	-3.9	0.9	2.1	0.75	6

(more compounds)
SMILES	Vif A3G	A1 inh	HNF4A DNA FP	LANA-H2B inh	UCH37 inh	Ecoli growth	Beta2AR agonist
Cc1nnc(C)n1/N=C/c1ccc(-c2ccccc2Cl)o1	6%	0.5	2.8	3.4	·	·	-2
CN(C)S(=O)(=O)c1ccc(C(=O)NCC2(N3CCOCC3)CCCCC2)cc1	·	-0.3	1.5	2.7	1.2	0.63	7
O=C(COC(=O)c1cccnc1Cl)Nc1cccc(S(=O)(=O)N2CCCCC2)c1	1%	0.2	-4.4	-7.8	2.0	0.69	5
NC(=O)C1CCN(CCCNC2CC(=O)N(Cc3ccc(N4CCCC4=O)cc3)C2=O)CC1 (stereo not given)	-8%	-0.4	2.6	1.1	2.3	0.69	-8
CCOCCCNC(=O)CN1C(=O)NC(Cc2c[nH]c3ccccc23)C1=O (stereo not given)	1%	-0.8	-1.8	-3.5	1.8	0.66	2
O=C(CCC1CCCCC1)NC1CCCCC1	·	0.1	-1.5	-3.2	1.2	0.65	-17
CC(C)CCN(CC(=O)NCc1ccc(F)cc1)S(=O)(=O)c1ccccc1F	8%	1.1	-3.5	1.0	6.4	0.68	1
COc1ccc(CNC(=O)CCN2C(=O)c3ccccc3S2(=O)=O)cc1	-5%	0.6	2.0	-0.7	2.8	0.66	2
Cc1ccc2oc(=O)c3cc(C(=O)N4CCN(C(=O)c5ccco5)CC4)sc3c2c1	-13%	-0.2	·	-2.5	2.6	0.72	·
CCN1C(=O)/C(=C2/C=Cc3cc(C)ccc3N2CC)N(C)C1=S	14%	0.9	-1.0	1.2	4.9	·	4
OCCC1CN(Cc2cccc3nonc23)CCN1Cc1ccsc1 (stereo not given)	21%	1.4	0.3	0.1	0.3	0.68	-3
CCOC(=O)C1=CNS(=O)(=O)NC1c1ccc(C)cc1 (stereo not given)	7%	·	-1.7	·	-2.1	0.68	2
O=C(N/N=C/c1ccco1)c1ccc(NC(=O)C2CC2)cc1	29%	0.9	2.9	3.3	·	·	-16
CCOc1ccc(NC(=O)CCC(=O)OC)cc1	-5%	1.0	-1.6	2.9	-0.5	0.68	2
O=C(CSc1ncnc2c1nnn2Cc1ccc(F)cc1)NC1CCCC1	-6%	-0.9	1.7	3.6	2.4	0.74	1
CC(C)(C)c1ccc(CN2C(=O)c3ccccc3S2(=O)=O)cc1	-2%	-0.5	-1.9	1.5	3.6	0.72	-3
CCSc1ncnc2c1sc1nc(-c3ccco3)c3c(c12)CC(C)(C)OC3	-3%	-0.7	·	5.7	·	·	·
COc1cc(CN2CCN(C(C)C)C(CCO)C2)ccc1OCc1ccccc1 (stereo not given)	-5%	1.2	0.0	-1.0	2.3	0.7	-1
CC(=O)Nc1ccc(S(=O)(=O)N2CCC(N(C)CCC(C)C)CC2)cc1	-3%	-0.2	2.2	-0.5	3.3	0.7	4
CCN1CCc2c(sc(NC(=O)c3ccc4ccccc4c3)c2C(N)=O)C1	·	0.6	38*	-3.9	·	·	-16
Cc1ccc(NC(=S)/N=C(\N)Nc2nc(C)c3ccccc3n2)cc1C	-26%	0.3	5.0	-2.3	7.3	0.73	2
Cc1ccc(C#CC[N+](C)(C)CC#Cc2ccccc2)cc1	?	0.1	-1.2	-370	-0.5	0.71	4
COc1cccc(CNC(=O)CN2c3cccc4cccc(c34)S2(=O)=O)c1	6%	-0.2	-3.5	2.6	-37	0.71	-3
COc1ccc(Nc2ccc(S(=O)(=O)N3CCCCC3)cc2[N+](=O)[O-])cc1OC	·	-1.0	0.3	-3.7	3.6	0.73	19
COc1cc(C#N)c(NS(=O)(=O)c2ccc3[nH]c(=O)sc3c2)cc1OC	-2%	0.1	-1.2	1.7	0.9	0.61	-7
Cc1occc1-c1nnc(SCC(=O)Nc2nc3ccccc3s2)o1	-3%	0.4	0.7	-2.6	5.0	0.69	3
COc1ccc(S(=O)(=O)NCC(=O)Nc2cccc(C)c2C)cc1OC	-7%	0.4	0.8	2.8	3.8	0.7	9
O=P(c1ccccc1)(c1ccccc1)C(c1ccccn1)P(=O)(c1ccccc1)c1ccccc1	16%	-0.4	-1.2	-4.5	1.2	0.61	-3
COC(=O)CC1C(=O)NCCN1C(=O)Nc1ccc(Cl)c(Cl)c1 (stereo not given)	-7%	-0.9	0.9	-6.0	2.4	0.72	2
O=C(NCCS(=O)(=O)N1CCN(c2ccccc2)CC1)c1ccc2c(c1)OCO2	-1%	-0.1	3.4	-6.8	3.2	0.7	4
CNC(=O)c1ccc(NC(=O)C2CCN(S(=O)(=O)c3cccc(C(F)(F)F)c3)CC2)cc1	-1%	-0.6	-2.5	-2.6	0.1	0.71	0
CCCN(Cc1ccccc1)C(=O)Nc1ccc2c(c1)nnn2C	-3%	-0.3	-5.6	1.0	-1.2	0.6	-1
Cc1cc(C(=O)NNC(=O)CCCOc2ccccc2)c(C)o1	-5%	-0.2	2.7	0.5	3.8	0.62	0
Cc1ccc(C)n1-c1sccc1C(=O)O	1.9µM*	·	-66	·	16	0.75	-1
O=C(Nc1ccnc(-c2cccnc2)n1)c1cccs1	-31%	1.1	2.2	-1.5	1.0	0.63	-6
c1ccc(-c2noc(-c3ccncc3)n2)nc1	-1%	-7.0	2.4	-6.2	1.1	0.65	-6
COC(=O)C[C@H](NC(=O)Cn1cnc2c(NCc3ccccc3)ncnc21)C(=O)OC	-5%	·	0.2	·	-1.9	0.73	-4
C=C(C)CNC(=S)N/N=C/c1ccc(N2CCOCC2)cc1	0%	-0.3	-1.9	1.6	·	·	0
CCC(C(=O)NCCC1=CCCCC1)n1nc(C)c2c(C)n(-c3ccccc3)nc2c1=O (stereo not given)	·	1.4	2.7	-1.2	6.4	0.68	-5
CCC1C(=O)N=C(SCC(=O)Nc2ccc(C)cc2)N(c2ccccc2)C1=O (stereo not given)	7%	-0.4	4.7	-2.2	4.6	0.69	-7
O=C(O)c1ccc(N2C(=O)c3cccc4c(C(=O)O)ccc(c34)C2=O)cc1	26%	-0.8	-38	0.0	·	·	-2
COc1ccc(C(=O)c2sc3nc(C)cc(-c4cccs4)c3c2N)cc1	-9%	·	30	·	-13	0.69	-74
O=C(CN1CCOCC1)N/N=C/c1ccc(-c2ccc(Br)cc2)o1	·	0.6	0.6	-4.1	·	·	7
CCCSc1nnc(N)s1	-1%	0.0	-0.8	1.5	-1.3	0.66	13
Cc1cc(C(=O)CSc2nc3ccccc3c(=O)[nH]2)c(C)n1C	32µM*	0.6	-0.5	3.6	3.7	0.74	17
COc1ccc(CCc2nnc(CCC(=O)NCc3cnc4ccccn34)o2)cc1	4%	-0.1	1.9	-3.0	-0.4	0.65	1
Cc1cccc(C)c1NC(=O)COC(=O)c1cccnc1	1%	-0.6	-3.2	-0.6	0.1	0.67	3
Cc1ccnn1CC(=O)N/N=C/c1ccc([N+](=O)[O-])s1	-6%	1.5	0.0	-5.4	·	·	-1
CC(=O)NCc1ccc(-c2csc(-c3cccs3)n2)cc1	·	-6.6	2.2	3.3	-7.5	0.68	-8
Cc1ccc(NC(=O)c2cccs2)cc1[N+](=O)[O-]	0%	-2.3	8.5	3.4	4.3	0.67	-5
(listing goes on)
SMILES	Vif A3G	A1 inh	HNF4A DNA FP	LANA-H2B inh	UCH37 inh	Ecoli growth	Beta2AR agonist
CSCCC(NC(=O)c1ccccc1Cl)C(=O)N1CCN(C(C)=O)CC1 (stereo not given)	-13%	2.7	3.3	5.9	4.1	0.67	-4
Cc1cccc([N+](=O)[O-])c1NC(=O)COC(=O)C1CC2CCCC(C1)C2=O (stereo not given)	3%	0.8	0.4	4.9	2.7	0.63	1
O=C(C1CCN(S(=O)(=O)c2cccc([N+](=O)[O-])c2)CC1)N1CCOCC1	7%	1.5	-0.1	4.7	2.4	0.68	2
O=C(C(Cc1ccccc1)N1C(=O)c2ccccc2C1=O)N1c2ccccc2CCc2ccccc21 (stereo not given)	-1%	-0.4	-3.8	-0.4	·	·	6
O=C(CCC(=O)OCC(=O)c1cccc([N+](=O)[O-])c1)Nc1ccccc1Cl	3%	0.0	-1.4	1.0	0.0	0.71	9
S=C(Nc1cccc(Cl)c1)Nc1ccc2c(c1)OCCO2	·	0.1	-0.5	4.1	5.9	0.61	4
CN1CCN(NC(=O)C23CC4CC(CC(C4)C2)C3)CC1	·	-0.1	1.2	1.3	0.5	0.64	-1
Cn1c(=O)c2c(nc(SCc3cccnc3)n2Cc2ccc(F)cc2)n(C)c1=O	-4%	-0.1	0.9	0.8	-0.9	0.7	-8
Cc1cc(C(F)(F)F)nn1CC(=O)NCC1CCCO1 (stereo not given)	2%	-1.3	0.1	1.8	1.9	0.72	3
COc1ccc(NC(=O)c2cccs2)cc1NC(=O)c1ccco1	2%	0.1	-2.2	-0.5	0.7	0.72	-17
CCN(CC(=O)Nc1ccc2c(c1)OCCO2)C(=O)CC1CCCC1	11%	0.9	-2.2	2.8	0.1	0.74	-2
Cn1c(NCc2c[nH]c3ccccc23)nc2ccccc21	-9%	-0.1	0.4	9.2	3.3	0.7	-7
CCN1c2ccccc2N(C)C1(C)c1ccccc1 (stereo not given)	·	-1.5	7.1	·	4.0	·	3
CCN1C(=O)[C@H]2[C@@H](c3ccc(SC4CCCCC4)cc3)N3CCCC[C@@]3(C(=O)OC)[C@H]2C1=O	·	0.2	20	-1.4	0.9	·	13
O=c1oc2ccccc2c(Nc2cccc3ccccc23)c1[N+](=O)[O-]	11%	-1.4	-15	-1.1	4.3	0.67	11
